# Screening results from PubChem BioAssay.
# AF4-AF9 inh: inhibitors of human MLL-AF4/AF9 interaction; inhibition, % at 10 µM; 0.47% of 350,000 active; P42568; AlphaScreen, biotin-AF4 peptide binding to FLAG-AF9;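 active = every replicate reaching a set inhibition limit, whatever the replicate mean, cut at about 25% in these data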;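 also: 0% = plate neutral control median and 100% = total signal loss; the record names both 10 and 1 µM as test concentration; the first replicate is given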
# Target sequence (P42568 whole entry, looked up): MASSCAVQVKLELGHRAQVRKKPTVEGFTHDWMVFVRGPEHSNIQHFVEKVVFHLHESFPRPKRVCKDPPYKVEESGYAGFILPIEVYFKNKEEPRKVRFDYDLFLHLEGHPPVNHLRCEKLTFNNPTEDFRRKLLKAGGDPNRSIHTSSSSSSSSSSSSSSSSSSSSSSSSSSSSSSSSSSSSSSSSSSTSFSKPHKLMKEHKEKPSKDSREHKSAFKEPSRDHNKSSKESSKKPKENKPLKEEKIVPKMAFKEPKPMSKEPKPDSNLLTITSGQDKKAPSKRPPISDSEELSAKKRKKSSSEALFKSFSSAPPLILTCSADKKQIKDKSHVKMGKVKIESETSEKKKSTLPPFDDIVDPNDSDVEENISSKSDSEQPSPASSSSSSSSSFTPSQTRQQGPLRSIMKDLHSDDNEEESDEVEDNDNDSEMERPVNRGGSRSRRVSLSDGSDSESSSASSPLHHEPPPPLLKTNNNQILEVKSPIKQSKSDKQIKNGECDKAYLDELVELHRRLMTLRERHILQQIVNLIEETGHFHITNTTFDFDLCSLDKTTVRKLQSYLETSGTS
# FGF22 binding: shifts melting point of recombinant human FGF22. recombinant FGF22 thermal shift, SYPRO orange fluorescence; percent of sucrose octasulfate shift, DMSO zero. calls only at 9.99 µM. 1.5% of 340,000 active;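 active = melting point raised past a set limit in the mean and every replicate; three in four hits are not shown here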
# Target sequence (Q9HCT0 whole entry, looked up): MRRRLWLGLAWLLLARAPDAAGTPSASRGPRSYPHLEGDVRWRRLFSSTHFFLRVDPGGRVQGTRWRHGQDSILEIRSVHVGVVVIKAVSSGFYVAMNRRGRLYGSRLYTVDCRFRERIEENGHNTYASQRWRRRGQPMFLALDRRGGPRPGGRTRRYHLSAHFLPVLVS
# * marks the source's active call; other numbers are inactive results; i = inactive. An excerpt, so the mix of outcomes need not match the whole.
SMILES,AF4-AF9 inh,FGF22 binding
C[C@H](CO)N1C[C@H](C)[C@@H](CN(C)S(=O)(=O)c2ccc(Cl)cc2)Oc2ccc(NC(=O)Nc3ccc4c(c3)OCO4)cc2C1=O,7.2,i
CO[C@@H]1CC[C@@H]2CCOc3c(C#N)cccc3C(=O)N(C)C[C@H](c3ccccc3)CC(=O)N(C)C[C@H]1O2,-3.6,i
O=C(C1CCC1)N1CC[C@@H]2[C@@H](CO)Nc3ccc(C#Cc4cccc(F)c4)cc3[C@@H]21,1.8,i
CO[C@@H]1CN(C)C(=O)c2cc(NC(=O)c3cc(C)on3)ccc2OC[C@@H](C)NC[C@@H]1C,-3.3,i
C#CCNC(=O)C1=C[C@@H](C(C)(C)C)C[C@@H](OCCCCO)O1,-2.7,i
O=C(C[C@H]1CC[C@H](NS(=O)(=O)c2ccccc2)[C@@H](CO)O1)NCc1ccccc1F,-1.1,i
CC(C)NC(=O)N[C@@H]1CC[C@H](CC(=O)NCc2ccc(Oc3ccccc3)cc2)O[C@@H]1CO,-1.9,i
COc1ccc2c3c(n(C)c2c1)[C@@H](CO)N(Cc1ccncc1)CC31CN(C(=O)C2CCCC2)C1,2.5,i
Cc1ccc(S(=O)(=O)Nc2cccc3c2O[C@@H](CN(C)S(=O)(=O)c2cn(C)cn2)[C@H](C)CN([C@H](C)CO)C3=O)cc1,-2.0,i
Cc1ccc(S(=O)(=O)N(C)C[C@H]2OCCCC[C@H](C)Oc3ccc(NC(=O)c4ccccc4)cc3C(=O)N([C@@H](C)CO)C[C@H]2C)cc1,-2.6,i
N#C[C@H]1[C@@H](c2ccccc2-c2ccccc2F)[C@H](CO)N1C(=O)C1CCC1,-1.9,i
CC(C)NC(=O)Nc1ccc2c(c1)C(=O)N([C@H](C)CO)C[C@@H](C)[C@H](CN(C)C(=O)c1ccncc1)OCCCC[C@@H](C)O2,-0.2,i
Cn1cnc(CCNC(=O)C[C@@H]2CC[C@H]3[C@@H](COC[C@H](O)CN3C(=O)Nc3ccc(F)cc3)O2)c1,-0.2,i
COC(=O)[C@]12C[C@H](CC(=O)NCc3ccc(C)o3)C(=O)N(Cc3ccccc3)C1=C[C@H](C(C)(C)C)O[C@@H]2C,1.0,i
Cc1cc(C(=O)Nc2cccc3c2O[C@@H](CN(C)S(=O)(=O)c2ccc(F)cc2)[C@H](C)CN([C@@H](C)CO)C3=O)n(C)n1,-1.8,i
CNC(=O)C[C@H]1CC[C@H]2[C@H](COc3ccc(NC(=O)Nc4cc(C)cc(C)c4)cc3C(=O)N2C)O1,4.5,i
CCCC#Cc1ccc([C@@H]2[C@@H](CO)N(S(C)(=O)=O)[C@H]2C#N)cc1,0.3,i
COc1ccc(-c2ccc3c(c2)[C@@H]2[C@@H](CCN2C(=O)c2cnccn2)[C@@H](CO)N3)cc1,-2.8,i
CN(C)C(=O)c1cccc(-c2ccc3c(c2)[C@@H]2[C@@H](CCN2C(=O)Cc2ccccc2)[C@H](CO)N3)c1,3.4,i
CC(C)C#Cc1cnc2c(c1)C(=O)N([C@H](C)CO)C[C@H](C)[C@@H](CN(C)C(=O)c1cnccn1)O2,-6.0,i
C[C@@H]1CN([C@H](C)CO)C(=O)c2cccc(NC(=O)Nc3ccc4c(c3)OCO4)c2O[C@H]1CN(C)Cc1ccncc1,-0.1,i
CN1C(=O)c2cc(NC(=O)c3ccc(Cl)cc3)ccc2OC[C@@H]2O[C@@H](CC(=O)NCc3cccc(F)c3)CC[C@@H]21,-1.6,i
CCC(=O)N1[C@@H]2c3ccc(-c4cccnc4)c(=O)n3C[C@H]1[C@H](CO)[C@H]2C(=O)NC1CCC1,-0.2,i
C[C@@H]1CN([C@@H](C)CO)C(=O)Cc2cc(NC(=O)c3ccncc3)ccc2O[C@@H]1CN(C)C(=O)Nc1ccc2c(c1)OCO2,-2.8,i
C[C@@H]1CCCCO[C@H](CN(C)Cc2ccncc2)[C@H](C)CN([C@H](C)CO)C(=O)c2cc(NC(=O)Nc3ccc(C(F)(F)F)cc3)ccc2O1,2.0,i

# Remaining list, next part
SMILES,AF4-AF9 inh,FGF22 binding
O=C(Cc1ccccn1)N[C@H]1CC[C@H](CCn2cc(-c3cccnc3)nn2)O[C@@H]1CO,1.5,i
O=C(NCC[C@@H]1CC[C@@H](NC(=O)C2CCOCC2)[C@@H](CO)O1)c1ccc(F)cc1,-3.9,i
CCC(=O)N1[C@H](CO)[C@H](c2ccccc2)[C@H]1CN(CC)C(=O)c1cccc(F)c1,-3.1,i
O=C(Nc1ccc(F)cc1)N1C[C@@H]2[C@H](c3ccccc31)[C@H](CO)N2Cc1cocn1,-1.6,i
C[C@@H]1CN([C@H](C)CO)C(=O)c2cc(/C=C/c3ccccc3)cnc2O[C@@H]1CN(C)C(=O)Nc1ccc(C(F)(F)F)cc1,4.1,i
COCC#Cc1ccc2c(c1)O[C@H](CN(C)S(=O)(=O)c1cccc(OC)c1)[C@@H](C)CN([C@H](C)CO)S2(=O)=O,0.3,i
CC=Cc1ccc2n(c1=O)C[C@H]1[C@H](CO)[C@@H](C(=O)NCCc3ccncc3)N(Cc3cncnc3)[C@@H]21 (mixture of isomers),-1.8,i
CCOC(=O)C1=CCN(S(=O)(=O)c2cccc(Cl)c2)C1c1ccc(Cl)cc1 (stereo not given),-4.0,i
COc1ccc2c3c([nH]c2c1)[C@@H](CO)N(Cc1cc(F)ccc1F)CC31CN(C(=O)CN(C)C)C1,-1.6,i
O=C(C[C@H]1CC[C@@H]2[C@H](COC[C@H](O)CN2Cc2cccc(Cl)c2)O1)N1CCCCC1,-3.4,i
CC(C)(C)[S@@](=O)N1Cc2cc(C(=O)NCc3ccc4c(c3)OCO4)nc(-c3cccc(-c4ccncc4)c3)c2[C@H]1CCO,2.5,i
COc1ccccc1-c1ccc([C@H]2[C@@H](CO)N3CCCCN(S(=O)(=O)c4cn(C)cn4)C[C@H]23)cc1,2.7,i
C[C@@H]1CCCCO[C@@H](CN(C)C(=O)Nc2ccc(F)cc2)[C@@H](C)CN([C@H](C)CO)C(=O)c2cc(NC(=O)C3CCCCC3)ccc2O1,-3.5,i
C[C@@H]1CN([C@H](C)CO)C(=O)Cc2cc(NC(=O)NC3CCCCC3)ccc2O[C@@H]1CN(C)Cc1ccccc1,-3.2,i
Cn1cnc(S(=O)(=O)N2CC[C@@H]3[C@H]2c2cc(C#Cc4ccccc4)ccc2N[C@@H]3CO)c1,-2.9,i
O=C(NCC(F)(F)F)[C@H]1[C@H](CO)[C@H]2Cn3c(cccc3=O)[C@H]2N1C(=O)c1ccccc1F,-20,i
CO[C@H]1CN(C)C(=O)c2ccc(NS(C)(=O)=O)cc2OC[C@H](C)N(C(=O)C2CCOCC2)C[C@H]1C,-1.4,i
C[C@H]1CN([C@@H](C)CO)C(=O)c2cc(NC(=O)Nc3cccc4ccccc34)ccc2O[C@@H]1CN(C)C(=O)NC1CCCCC1,-0.7,i
CC(C)(O)C#Cc1cccc(-c2nc(C(=O)O)cc3c2[C@@H](CCO)N(S(=O)C(C)(C)C)C3)c1 (stereo not given in full),-2.1,i
COc1ccccc1-c1ccc2c(c1)O[C@H](CN(C)C(C)=O)[C@H](C)CN([C@@H](C)CO)S2(=O)=O,-4.4,i
O=C(O)C[C@H]1CC[C@H](NC(=O)Nc2ccccc2)[C@@H](CO)O1,-2.1,i
C[C@H]1CN([C@@H](C)CO)C(=O)c2cccc(NC(=O)c3ccc(-c4nccs4)cc3)c2O[C@@H]1CN(C)S(C)(=O)=O,-2.1,i
COc1ccc(S(=O)(=O)N(C)C[C@@H]2Oc3c(NC(=O)c4cnccn4)cccc3C(=O)N([C@@H](C)CO)C[C@@H]2C)cc1,0.9,i
CCCC#Cc1cnc2c(c1)C(=O)N([C@H](C)CO)C[C@H](C)[C@@H](CN(C)Cc1ccc3c(c1)OCO3)O2,5.6,i
COc1ccc(CN(C)C[C@H]2OCCCC[C@H](C)Oc3ccc(NS(=O)(=O)c4ccc(OC)cc4)cc3C(=O)N([C@@H](C)CO)C[C@H]2C)cc1,8.4,i

# Other compounds:
SMILES,AF4-AF9 inh,FGF22 binding
CN(C)c1ccc2c(c1)[C@@H]1C[C@@H](CC(=O)NCc3ccc(Oc4ccccc4)cc3)O[C@H](CO)[C@@H]1O2,6.7,i
CO[C@H]1CN(C)C(=O)c2ccc(NC(=O)CC(F)(F)F)cc2OC[C@@H](C)N(C(=O)c2ccccc2F)C[C@@H]1C,-4.1,i
COc1ccc(CCn2cnn3c(=O)c4ccccc4nc3c2=O)cc1OC,-6.2,i
Cc1cc(C(=O)Nc2cccc3c2O[C@H](CN(C)Cc2ccc(C(=O)O)cc2)[C@H](C)CN([C@H](C)CO)C3=O)n(C)n1,-8.0,i
Cc1ccccc1CN(C)C[C@H]1OCc2cn(nn2)CCCC(=O)N([C@@H](C)CO)C[C@@H]1C,1.2,i
CCCC(=O)N1CCC2(CC1)CN(Cc1ccccc1F)[C@@H](CO)c1c2c2ccc(OC)cc2n1C,3.3,i
CO[C@@H]1CN(C)C(=O)c2ccc(NC(=O)CC(F)(F)F)cc2OC[C@@H](C)N(S(=O)(=O)c2cn(C)cn2)C[C@@H]1C,-1.3,i
C[C@@H]1CN([C@@H](C)CO)C(=O)c2cc(/C=C/c3ccccc3)cnc2O[C@@H]1CN(C)C(=O)c1cccc(F)c1,3.9,i
C[C@H](CO)N1C[C@H](C)[C@@H](CN(C)C(=O)Nc2ccc(F)cc2)Oc2c(NS(=O)(=O)c3ccc(Cl)cc3)cccc2C1=O,0.2,i
C[C@H]1CN([C@@H](C)CO)C(=O)CCCn2nncc2CO[C@H]1CN(C)Cc1cccc2c1OCCCO2,-2.7,i
COc1cccc(NC(=O)N[C@@H]2CC[C@@H](CC(=O)N3CCOCC3)O[C@H]2CO)c1,-2.3,i
CCC(=O)N(CC)C[C@H]1[C@H](c2ccccc2)[C@@H](CO)N1C(C)=O,-0.6,i
COc1ccc(S(=O)(=O)N(C)C[C@@H]2OCCCC[C@@H](C)Oc3ccc(NS(=O)(=O)c4cn(C)cn4)cc3C(=O)N([C@@H](C)CO)C[C@@H]2C)cc1,-5.7,i
COc1ccc(NC(=O)Nc2ccc3c(c2)CC(=O)N([C@@H](C)CO)C[C@@H](C)[C@@H](CN(C)C(=O)Nc2ccc4c(c2)OCO4)O3)cc1,2.5,i
CO[C@@H]1CN(C)C(=O)c2ccc(NS(C)(=O)=O)cc2OC[C@H](C)N(CC2CCOCC2)C[C@H]1C,-4.3,i
Cc1ccc(S(=O)(=O)Nc2ccc3c(c2)CC(=O)N([C@H](C)CO)C[C@@H](C)[C@@H](CN(C)S(=O)(=O)c2ccc(C)cc2)O3)cc1,-1.5,i
C[C@@H]1CCCCO[C@@H](CN(C)C(=O)Nc2cccc3ccccc23)[C@H](C)CN([C@@H](C)CO)C(=O)c2cc(N(C)C)ccc2O1,17,i
C[C@@H]1CCCCO[C@H](CN(C)C(=O)c2ccncc2)[C@H](C)CN([C@@H](C)CO)C(=O)c2cc(NS(=O)(=O)c3cn(C)cn3)ccc2O1,-0.4,i
C[C@@H]1CCCCO[C@H](CN(C)Cc2ccncc2)[C@@H](C)CN([C@H](C)CO)C(=O)c2cc(NC(=O)c3ccncc3)ccc2O1,-1.2,i
C[C@@H]1CN([C@H](C)CO)C(=O)c2cc(NS(=O)(=O)c3ccc(F)cc3)ccc2O[C@@H]1CN(C)Cc1ccc(C(=O)Nc2ccccc2N)cc1,-14,i
CNC[C@@H]1Oc2ccc(NS(=O)(=O)c3cccs3)cc2C(=O)N([C@@H](C)CO)C[C@H]1C,-4.2,i
O=C(C1CC1)N1CC2(C1)[C@H](c1ccccc1)[C@H](CO)N2S(=O)(=O)c1ccccc1,-2.6,i
Cc1noc(C)c1NC(=O)Nc1ccc2c(c1)C(=O)N([C@H](C)CO)C[C@@H](C)[C@@H](CN(C)C(=O)Nc1ccc(C(F)(F)F)cc1)OCCCC[C@@H](C)O2,4.8,i
CCCC#Cc1cnc2c(c1)C(=O)N([C@H](C)CO)C[C@@H](C)[C@@H](CN(C)C(=O)Nc1ccccc1OC)O2,-3.6,i
Cc1cccc(S(=O)(=O)N2CCCCN3[C@@H](CO)[C@H](c4ccc(C#CC(C)C)cc4)[C@@H]3C2)c1,2.9,i
COc1ccc(S(=O)(=O)N(C)C[C@H]2OCc3ccccc3-c3ccccc3C(=O)N([C@@H](C)CO)C[C@@H]2C)cc1,3.2,i
Cc1ccc2nc(-c3ccco3)c(Cc3ccsc3)n2c1,0.9,i
